High-throughput results (PubChem)
Sa helicase inh = inhibitors of S. aureus replicative helicase, primary screen, biochemical, fluorescence unwinding readout | hit rate 0.05% among 120,000 | inhibition, %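 (tested at about 80 µM)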 | replicative DNA helicase (DnaC/DnaB), Staphylococcus aureus | purified S. aureus helicase, fluorescence unwinding assay; about half of the hits fall short of the stated cut | AID 485395, 2010;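 active = both duplicates at 50% or more, or one of them with a favoured structure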;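 note: 0% = mean of negative control wells and 100% = mean of positive control wells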
MgrA-DNA mod = S. aureus MgrA activity modulators, primary screen, biochemical, S. aureus Newman, fluorescence polarization. MgrA-DNA binding. inhibition, %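 (about 10 µg/mL by stock and volumes)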. hit rate 0.13% among 84,000;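 active = above 50% in either of two replicates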;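 note: 0% = protein plus DNA without compound and 100% = DNA alone without protein; higher means less MgrA bound to DNA so lower polarization; one replicate is shown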
* marks the source's active call; other numbers are inactive results; nt = no result given. Only part of the results is shown, so the mix of outcomes need not match the whole.

canonical_smiles | MgrA-DNA mod | Sa helicase inh
CSc1ccc(CN(C)C(=O)Cn2[nH]c(=O)c3ccccc3c2=O)cc1 | nt | -1
Cc1nn(-c2ccc(F)cc2)c(-n2cccc2)c1C(=O)N1CCCCC1 | nt | 20
S=C(NCc1ccco1)NCC1CC(c2ccccc2)=NO1 (stereo not drawn) | -0.4 | nt
CC(C)(CNC(=O)c1cc2ccccc2o1)N1CCOCC1 | nt | -10
Cn1/c(=N/NC(=O)c2ccccc2)sc2ccccc21 | nt | 9
O=C(NCCCN1CCCCC1)c1oc(=O)c2ccccc2c1-c1ccccc1 | nt | 6
Nc1nccnc1C(=O)Oc1ccccc1 | -2.8 | nt
COC(=O)CNC(=O)c1ccccc1 | -2.3 | -1
O=C(CSCc1cccc(Br)c1)N/N=C/c1ccco1 | -0.4 | 0
O=C(CN1CCOCC1)N1CCc2ccccc21 | -2.2 | nt
O=C(CSc1nnc2ccccn12)Nc1ccc(N2CCCCC2)cc1 | nt | 9
Cc1c(C(=O)OC2CCOC2=O)oc2c1ccc1ccccc12 (stereo not drawn) | nt | -12
O=C(Cn1nc(-c2nccc3ccccc23)oc1=O)N1CCCc2ccccc21 | -2.3 | 11
O=C1CCC(c2cccs2)=NN1CO | 4.0 | nt
CCOC(=O)N1CCN(C(=O)Cn2cnc3c(cnn3-c3ccc(C)cc3C)c2=O)CC1 | nt | 10
Cc1cccc(S(=O)(=O)NCc2ccco2)c1 | 1.2 | 8
CC1CC(=O)N(N(C)C)C(C#N)(C#N)C1(C#N)C#N (stereo not drawn) | 17 | -1
CC(=O)N[C@@H](Cc1c[nH]c2ccccc12)C(=O)N1CCC(C)CC1 | nt | -10
O=C(CSc1cn(Cc2ccccc2)c2ccccc12)Nc1nccs1 | nt | 2
CCN(Cc1ccccc1)Cc1cc(Cl)ccc1O | 3.1 | 13

Overlap with the part before: seven entries, then new ones.
canonical_smiles | MgrA-DNA mod | Sa helicase inh
O=C1CCC(c2cccs2)=NN1CO | 4.0 | nt
CCOC(=O)N1CCN(C(=O)Cn2cnc3c(cnn3-c3ccc(C)cc3C)c2=O)CC1 | nt | 10
Cc1cccc(S(=O)(=O)NCc2ccco2)c1 | 1.2 | 8
CC1CC(=O)N(N(C)C)C(C#N)(C#N)C1(C#N)C#N (stereo not drawn) | 17 | -1
CC(=O)N[C@@H](Cc1c[nH]c2ccccc12)C(=O)N1CCC(C)CC1 | nt | -10
O=C(CSc1cn(Cc2ccccc2)c2ccccc12)Nc1nccs1 | nt | 2
CCN(Cc1ccccc1)Cc1cc(Cl)ccc1O | 3.1 | 13
CC(=O)Oc1cccnc1I | 1.4 | nt
O=S(=O)(NCC(O)c1ccccc1)c1ccccc1 (stereo not drawn) | -0.5 | nt
COc1ccccc1Nc1nn(-c2ccccc2)c2c1C(=O)CCC2 | -7.1 | 10
CCn1c(C)c(C2=CCN(S(=O)(=O)c3ccccc3)CC2)c2ccccc21 | -0.6 | 4
CCOC(=O)C1=C(C)N=c2s/c(=C\c3ccc(Br)o3)c(=O)n2C1c1ccc(OC)cc1OC (stereo not drawn) | 0.8 | nt
Cc1c2c(=O)n(-c3nc4ccccc4s3)nc-2cc(O)n1Cc1ccccc1 | 13 | -14
CCN(c1cccc(C)c1)S(=O)(=O)c1ccc(OC)cc1 | 1.0 | 3
COc1cccc(-c2cc(C(=O)Nc3sc4c(c3C#N)CCC(C(C)(C)C)C4)no2)c1 (stereo not drawn) | nt | 6
NS(=O)(=O)c1ccc(NC(=O)c2ccccc2C(=O)O)cc1 | nt | 3
CCOC(=O)C1C2C=CC3(CN(c4ccc(Cl)c(F)c4)C(=O)C13)O2 (stereo not drawn) | nt | 4
COc1ccc(C2=NN(C(=O)CCC(=O)O)C(c3cccc([N+](=O)[O-])c3)C2)cc1 (stereo not drawn) | 3.0 | nt
CCC(=O)Nc1cnc(OC)c(C(F)(F)F)c1 | -2.8 | nt
OC1CCN(c2nccc(C(F)(F)F)n2)CC1 | -2.8 | nt
Cc1nc(CNCc2ccc(CN(C)C)cc2)cs1 | nt | -12
O=C1OC2CC3CC2C1C3C(=O)N1CCc2ccccc21 (stereo not drawn) | -2.4 | 16
COc1ccccc1N1CCN(C(=O)c2ccc(S(=O)(=O)N3CCCCC3)cc2)CC1 | -1.2 | 5
CCOc1cccc(CNc2ccc(N3CCCC3)cc2)c1 | 38 | -2
CN1CCN(c2ccc(CNC(=O)c3cccnc3Oc3ccc(Cl)cc3)cc2)CC1 | -0.2 | nt
CCN1CSC(=S)N(Cc2ccccc2)C1 | -2.3 | 8
COc1ccc(-c2ccn[nH]2)cc1 | -0.9 | nt
O=C(COC(=O)/C=C/c1ccc(Br)o1)Nc1cccc2nsnc12 | nt | -3
CC(Sc1nnc(C2CC2)n1C1CC1)C(=O)c1c[nH]c2ccccc12 (stereo not drawn) | nt | -12
CC(C)(C)c1ccc(Cn2c(CO)cc3sccc32)cc1 | -1.0 | -2
CCOC(=O)c1cc(-c2csc(Nc3ccc(C)cc3)n2)on1 | nt | -5
Cc1cc(C(=O)N2CCN(S(=O)(=O)c3ccccc3)CC2)no1 | nt | 2
CCOc1cc2c(cc1OCC)C1C(C(=O)N3CCCCC3)c3ccccc3C(=O)N1CC2 (stereo not drawn) | 0.3 | 12
COc1ccc(OC)c(CCNC(=O)c2sc(-n3cccc3)nc2C)c1 | nt | 8
Nc1cccc(CCc2ccncc2)c1 | -1.0 | 3
O=C(O)CNC(=O)c1nc2ncccn2n1 | -3.9 | 4
CCCN1C=C(C(=O)OC)C(c2cccc(Cl)c2)C(C(=O)OC)=C1 | 0.8 | 6

Looked up by structure from the list above:
canonical_smiles | MgrA-DNA mod | Sa helicase inh
CCOC(=O)N1CCN(C(=O)Cn2cnc3c(cnn3-c3ccc(C)cc3C)c2=O)CC1 | nt | 10
O=C1OC2CC3CC2C1C3C(=O)N1CCc2ccccc21 (stereo not drawn) | -2.4 | 16
O=C1CCC(c2cccs2)=NN1CO | 4.0 | nt
COc1ccc(OC)c(CCNC(=O)c2sc(-n3cccc3)nc2C)c1 | nt | 8
Cc1nc(CNCc2ccc(CN(C)C)cc2)cs1 | nt | -12

More entries
canonical_smiles | MgrA-DNA mod | Sa helicase inh
N#CC(C(=O)CSc1nc2ccccc2[nH]1)c1ccccc1 (stereo not drawn) | nt | 10
Cn1c2ccc(Cl)cc2c2nc3ccccc3nc21 | nt | 39
O=C(NCCC1=CCCCC1)C1CCN(S(=O)(=O)N2CCCC2)CC1 | 1.1 | -15
CC(C)CCn1nnnc1CN1CCN(Cc2ccc3c(c2)OCO3)CC1 | -0.9 | -1
O=C1NC(=O)C(CC(=O)c2ccccc2)S1 (stereo not drawn) | nt | 2
Cc1ccc2c(c1)N(C(=O)N1CCCC(C(=O)NCCCc3ccccc3)C1)CC(C)O2 (stereo not drawn) | 0.5 | -7
NC(=O)C1CCCN1S(=O)(=O)c1ccc2ccccc2c1 (stereo not drawn) | -0.9 | -1
C/C(=C\C(=O)C(F)(F)F)NC1CCCCC1 | nt | 25
CC(C)(C)NC1c2cccc3cccc(c23)C1NS(=O)(=O)c1ccccc1 (stereo not drawn) | nt | -104
CN1C(=O)C(CC(=O)Nc2ccc(F)cc2)N(NC(=O)c2cccc(F)c2)C1=S (stereo not drawn) | 0.9 | -11
CC1(C)CN(c2cccc(N3CC(C)(C)C3=O)n2)C1=O | 0.6 | nt
O=C1CSC(c2ccncc2)N1CC1CC1 (stereo not drawn) | -2.7 | nt
O=C(COC(=O)Cc1cccc(C(F)(F)F)c1)NC1CC1 | 3.4 | 31
O=C(COc1ccc(Cl)cc1)N/N=C\c1cn(CC(=O)N2CCOCC2)c2ccccc12 | nt | 6
Nc1ccc2c(c1)C/C(=C/c1ccco1)C2=O | nt | -308
O=C(CC1NC(=O)NC1=O)NC1(C(=O)NC2CCCC2)CCCCC1 (stereo not drawn) | nt | -18
CC1CCN(C(=O)c2cc3ccccc3s2)CC1 | -1.8 | nt
CC(C)(C)NS(=O)(=O)c1cccc2c(N)cccc12 | nt | 18
O=C(CO/N=C/c1ccccc1OC(F)F)N1CCN(C(=O)c2ccco2)CC1 | nt | 12
CN/N=C(\Cc1nc2ccccc2[nH]1)c1ccccc1 | nt | -8
O=C(O)CCS(=O)(=O)Nc1ccccc1 | nt | 3
Cn1nc(C(=O)OC2CCCCC2=O)c2ccccc2c1=O (stereo not drawn) | nt | -6
O=C(OCC(=O)N1CCCCC1)c1ccccc1I | -2.2 | 10
CCOC(=O)c1ccc(CNC(=O)CSc2nnc(-c3ccc(OC)cc3)o2)cc1 | -0.9 | 15
Cc1ccc(NC(=O)CSc2nnc(NC(=O)CC(C)C)s2)cc1 | nt | -10
N#Cc1ccccc1S(=O)(=O)N1CCN(C(=O)c2cc(C3CC3)nn2-c2ccccc2)CC1 | nt | 21
COc1ccc(S(=O)(=O)NCc2csc(-c3ccccc3)n2)cc1OC | 0.3 | 5
O=C(Cn1ncc2ccccc21)NCc1cccc(Cl)c1 | nt | -4
Cc1ccccc1-n1c(SCC(=O)O)nc2sc3c(c2c1=O)CC(C)(C)OC3 | 1.8 | 1
O=C(CN1C(=O)C(c2ccccc2)=NC12CCCC2)Nc1ccccc1 | 0.0 | 15
O=C(O)C1CCCN1/C=C/C(=O)C(F)(F)F (stereo not drawn) | nt | -15
CC1(C)CC2CC(C)(CN2C(=O)Nc2ccccc2)C1 (stereo not drawn) | 0.7 | 5
COc1ccc(NC(=O)CCNS(=O)(=O)c2ccc3c(c2)c(=O)n(C)c(=O)n3C)cc1 | nt | -17
COc1ccc(OCC2NCCc3cc(OC)c(OC)cc32)cc1 (stereo not drawn) | nt | 19
CSc1nnc(CSc2ncccn2)n1CCc1ccccc1 | nt | 17
COc1ccc(N2C(=O)C3SC(N)=C(C#N)C4(CCCCC4)C3C2=O)cc1 (stereo not drawn) | nt | -4
COc1cc(/C=C2\SC(=O)N(C)C2=O)ccc1OCC(=O)O | nt | -4
CCOC(=O)N1CCC(NC(=O)c2ccc3c(c2)N(Cc2ccccc2F)C(=O)c2ccccc2S3=O)CC1 (stereo not drawn) | nt | 14
CC1CC2C3CCC4=CC(=O)C=C[C@]4(C)[C@@]3(F)[C@@H](O)C[C@]2(C)[C@@]1(O)C(=O)CO (stereo partly drawn) | -0.4 | nt
COc1ccc(-c2[nH]ncc2CN2CCC(O)(c3ccc(Cl)cc3)CC2)cc1 | nt | 9
Cc1ccc(Cl)cc1-n1nnc(-c2nc(-c3ccc4c(c3)OCO4)no2)c1N | -1.4 | 4
O=S(=O)(c1ccc(Cl)cc1)N1CCc2ccccc21 | 12 | -80
Cc1nc(C#N)c(Nc2ccccc2)o1 | -2.5 | -2
NC(=O)c1c(SCc2ccccc2)sc(C(=O)c2ccccc2)c1N | -1.4 | nt
O=C(O)CNS(=O)(=O)c1ccc2ccccc2c1 | -0.2 | 10
CCNC(=O)Cn1cc(C#N)c2ccccc21 | -1.2 | 2
CSc1[nH]n2c(=O)cc(C)nc2c1S(=O)(=O)c1ccccc1 | nt | -2
Cc1cccc(-c2nnc(SCC(=O)N3CCCCC3C)o2)c1 (stereo not drawn) | 2.6 | 12
Cc1nc2c(C(=O)NCc3ccccc3)c[nH]n2c(=O)c1Cl | 4.7 | 6
COCC(=O)NC(c1ccccc1)c1ccccc1 | 0.8 | 9

Further results follow.
canonical_smiles | MgrA-DNA mod | Sa helicase inh
CCN(CC)c1nc(-c2ccccc2)nc2ccccc12 | -3.0 | -4
Nc1ccc(/C=C/c2ccccc2)cc1 | -1.8 | -1
COc1ccc(NS(=O)(=O)c2ccc3oc4ccccc4c3c2)cc1OC | 2.5 | 4
O=C(O)c1ccccc1C(=O)N1CCCC1 | -5.7 | 0
CCCCn1nnnc1COC(=O)c1ccccc1O | nt | 17
O=c1oc(-c2cccs2)nc2ccc(Br)cc12 | nt | -18
NC(=O)C1CC(O)CN1c1ncnc2cc(-c3ccc(F)cc3)sc12 (stereo not drawn) | nt | -10
CC(C)C1CC(CCN2C(=O)CCC2=O)(c2ccccc2)CCO1 (stereo not drawn) | 1.5 | -9
O=C(CSc1nc2ncccc2o1)NCc1ccco1 | nt | 2
CC1C/C(=C/c2ccccn2)C(=O)/C(=C/c2ccccn2)C1 (stereo not drawn) | nt | 23
CCc1nc2ccccc2n1C(=O)c1ccccc1C(=O)O | nt | -1
O=c1[nH]c(C2=C(O)Cn3c2nc(=O)c2ccccc23)nc2ccccc12 | 3.0 | 2
CCN(Cc1ccc2c(c1)OCCO2)C(=S)NCc1ccco1 | nt | 21
O=C1OCCC1Sc1nnc(-c2cccc(S(=O)(=O)N3CCOCC3)c2)n1-c1cccc(Cl)c1 (stereo not drawn) | nt | -7
CCc1ccc(C(=O)c2cnc3cc4c(cc3c2N2CCC(C(N)=O)CC2)OCCO4)cc1 | nt | 2
CCC(=O)Nc1cccc(-c2cnc3ccccc3n2)c1 | 0.0 | 6
C=CCn1c(SCC(=O)O)nnc1-c1ccco1 | 2.9 | 5
CCOC(=O)C1=C(C)N(C2CCCC2)C(=O)NC1c1ccc(Cl)cc1 (stereo not drawn) | nt | 23
CCOC(=O)CSc1nnc(Cc2ccc(Cl)cc2)c(=O)[nH]1 | nt | 20
CC1(C)CC(C)(O)P(=O)(c2ccccc2)O1 (stereo not drawn) | 1.4 | -2
CC1Cc2ccccc2N1C(=O)c1cnsn1 (stereo not drawn) | -2.2 | 19
OC(COc1ccc(F)cc1)CN1CCN(c2nc3ccc(Cl)cc3s2)CC1 (stereo not drawn) | -1.5 | nt
